KCNQ2 enhance: KCNQ2 (rat) channel potentiation. O88943. CHO-K1 KCNQ2, FluxOR thallium flux fluorescence; active compounds read high. B-score at 10 µM. hit rate 0.54% among 310,000. AID 2239;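 active = fluorescence ratio B-score at least 3 SD of library B-scores, with initial fluorescence B-score within 3 SD, cut at about 5.3 in these data; same plate scores as AID 2156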;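 also: B-score of peak minus minimum over baseline fluorescence ratio after K+ and Tl+ stimulus; positive B-score means potentiation of KCNQ2 with more thallium influx and brighter signal; only the inactives scoring about 0 or higher are listed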
Target sequence (O88943 whole entry, looked up): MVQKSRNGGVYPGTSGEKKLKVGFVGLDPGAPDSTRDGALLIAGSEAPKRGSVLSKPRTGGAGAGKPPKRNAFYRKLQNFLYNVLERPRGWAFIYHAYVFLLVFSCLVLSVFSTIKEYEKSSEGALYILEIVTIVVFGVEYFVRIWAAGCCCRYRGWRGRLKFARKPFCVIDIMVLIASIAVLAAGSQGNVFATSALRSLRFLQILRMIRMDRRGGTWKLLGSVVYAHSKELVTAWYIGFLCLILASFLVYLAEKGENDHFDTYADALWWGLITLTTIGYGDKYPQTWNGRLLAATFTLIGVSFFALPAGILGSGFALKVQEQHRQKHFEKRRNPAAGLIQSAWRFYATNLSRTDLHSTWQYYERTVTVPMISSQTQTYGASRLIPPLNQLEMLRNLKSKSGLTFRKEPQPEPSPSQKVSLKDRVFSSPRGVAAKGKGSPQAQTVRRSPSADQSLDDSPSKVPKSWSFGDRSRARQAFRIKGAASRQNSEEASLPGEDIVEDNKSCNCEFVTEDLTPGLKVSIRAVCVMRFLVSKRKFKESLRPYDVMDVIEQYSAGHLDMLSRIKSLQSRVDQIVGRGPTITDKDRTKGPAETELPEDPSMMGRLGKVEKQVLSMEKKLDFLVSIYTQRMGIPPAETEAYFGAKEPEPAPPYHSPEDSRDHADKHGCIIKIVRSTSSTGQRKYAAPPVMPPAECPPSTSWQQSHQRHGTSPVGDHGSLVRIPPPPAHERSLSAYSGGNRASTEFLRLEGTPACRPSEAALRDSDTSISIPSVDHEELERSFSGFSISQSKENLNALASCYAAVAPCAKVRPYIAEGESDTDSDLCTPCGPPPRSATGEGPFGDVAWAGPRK
KCNQ2 enhance baseline: recorded beside KCNQ2 enhance, whose call it bears; B-score; compound at 10 µM; measured here: initial fluorescence intensity artifact check;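 brightness before thallium and not channel activity; 0 = typical well and far values either way flag optical interference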
Active calls of the source: *. The list is partial. The share of hits here may be higher or lower than overall.

Values in the order: KCNQ2 enhance	KCNQ2 enhance baseline
- CC(C)CN(C(=O)COC(=O)c1ccc([N+](=O)[O-])o1)C1CCS(=O)(=O)C1 (stereo not given)
→ 0.1	-0.29
- CCn1c(=O)c2sccc2n(CC(=O)NC2CCCC2)c1=O
→ 1.25	0.2
- CN1C(=O)Cc2cc(S(=O)(=O)Nc3ccc(N4CCOCC4)cc3)ccc21
→ 0.69	0.85
- Cc1ccc2sc(NC(=O)c3ccc(N4C(=O)CCC4=O)cc3)nc2c1C
→ 0.41	-0.05
- CC1CCCC(NC(=O)c2nn(C)c3c2CS(=O)(=O)c2ccccc2-3)C1C (stereo not given)
→ 0.88	-0.39
- O=C(Nc1ccc(S(=O)(=O)NC2=NCCCCC2)cc1)c1ccc(=O)[nH]c1
→ 0.03	0.4
- FC(F)(F)c1cccc(NC(=S)Nc2cccc(Cl)c2)c1
→ 6.7*	-0.33*
- COc1cc2c(cc1OC)CN(CCOc1ccc(Br)cc1)CC2
→ 2.54	0.14
- O=C(CNC(=O)c1ccccc1)N/N=C/c1ccccc1Cl
→ 0.17	0.06
- CCOC(=O)CN1C(=O)N[C@@H](c2cccc(C(F)(F)F)c2)C(C(C)=O)=C1C
→ 0.56	-0.83

Further structures.
Values in the order: KCNQ2 enhance	KCNQ2 enhance baseline
- COc1cc(=O)[nH]c(SC(C)C(=O)Nc2cccc3ccccc23)n1 (stereo not given)
→ 0.17	1.27
- CC1CC(C)CN(CCCNC(=O)CCNC(=O)Cn2ccc3ccccc3c2=O)C1 (stereo not given)
→ 3.36	-2.49
- COCCCNC(=O)c1ccc2c(=O)n(C3CCCC3)c(=S)[nH]c2c1
→ 2.87	-1.26
- O=C(CCn1nnc2ccccc21)Nc1nnc(Cc2ccc(F)cc2)s1
→ 0.36	0.85
- Cc1cc(-c2ccccc2)[nH]c(=O)c1C#N
→ 0.76	-0.9
- O=C(CN1C2CCCC1CC(NC(=O)c1ccccc1)C2)NC1CC1 (stereo not given)
→ 0.34	-0.09
- CSCCC(NC(=O)c1ccccc1Br)C(=O)NCc1ccc(F)cc1 (stereo not given)
→ 0.1	-0.61
- Cc1noc(C)c1COc1cccc(C(=O)OCC(=O)N2CC(=O)Nc3ccccc32)c1
→ 0.41	0.77
- CCOc1ccc(S(=O)(=O)NCCC(=O)NC(C)CCc2ccccc2)cc1 (stereo not given)
→ 0.65	-1.43
- Cc1ccc(C(=O)c2ccc([N+](=O)[O-])cc2)cc1C
→ 5.57*	1.12*

Other results
Values in the order: KCNQ2 enhance	KCNQ2 enhance baseline
- O=C(NCC1CCCO1)C(C(=O)c1ccc(F)cc1)n1ccccc1=O (stereo not given)
→ 0.34	-1.47
- NC(=O)c1ccc(Nc2ccc([N+](=O)[O-])cc2[N+](=O)[O-])cc1
→ 0.35	-0.21
- Cc1c(NC(=O)C(C)OC(=O)c2sc3ccccc3c2Cl)c(=O)n(-c2ccccc2)n1C (stereo not given)
→ 1.3	3.75
- CCCOC(=O)c1ccc(OCC(O)CN2C(=O)NC(C)(C)C2=O)cc1 (stereo not given)
→ 0.04	-1.69
- COc1ccc2[nH]cc(C(O)CN3CCN(c4ccccc4F)CC3)c2c1 (stereo not given)
→ 0.44	-0.39
- CCC1(C)Cc2nc3[nH]c(=S)n(-c4ccc(C)cc4)c(=O)c3cc2CO1 (stereo not given)
→ 1.56	-1.33
- COn1c(=O)c(=O)n(O)c2ccccc21
→ 0.01	0.08
- Cc1cn(CCC(=O)Nc2ccc(N3CCOCC3)cc2)c2ccccc12
→ 1.35	-1.52
- Oc1ccc(/C=N/N(c2ccccc2)c2ccccc2)c(O)c1O
→ 0.94	0.81
- COC(=O)C1CN(C(=O)C(C)Oc2ccccc2F)c2ccccc2O1 (stereo not given)
→ 0.96	-0.73

Next section:
Values in the order: KCNQ2 enhance	KCNQ2 enhance baseline
- O=C(c1cc2cc(Br)ccc2o1)N1CCN(c2ccccc2)CC1
→ 0.9	-1.18
- CCC(C)c1ccc(NC(=O)c2cccs2)cc1 (stereo not given)
→ 3.9	-0.28
- O=C(NC1CCN(C(=S)NCc2ccco2)CC1)c1cccc(F)c1
→ 0.22	-0.54
- C=CCn1c(SC)nnc1C1COc2ccccc2O1 (stereo not given)
→ 0.06	-0.27
- Cn1nnnc1SCC(=O)NCCCc1ccccc1
→ 0.03	-0.4
- CCOC(=O)C(C(C)=O)C(c1ccc(OCCC(C)C)cc1)C(C(C)=O)C(=O)OCC (stereo not given)
→ 1.34	1.18
- NC(=O)CSc1nc2scc(-c3ccco3)c2c(=O)n1-c1ccccc1
→ 1.02	0.54
- O=C(NCc1ccc2c(c1)OCO2)c1cc(-c2ccccc2Cl)on1
→ 0.71	-1.27
- CCCCOc1ncnc2c1[nH]c1ccc(C)cc12
→ 0.92	-0.88
- CCCC(=O)Nc1nn(CC(C)C)c2nc3cc(C)ccc3cc12
→ 0.37	1.94

Next results follow:
Values in the order: KCNQ2 enhance	KCNQ2 enhance baseline
- COc1ccc(-c2c(C)nn(-c3ccccc3)c2N)cc1OC
→ 0.29	-0.34
- COCCNC(=O)C(c1ccc(C)o1)N(C(=O)c1snc(C(N)=O)c1N)c1cccc(C)c1 (stereo not given)
→ 1.3	-0.23
- c1csc(Cn2nnnc2CN2CCN(c3nc4ccccc4s3)CC2)c1
→ 1.02	-0.07
- NC(=O)c1sc2nc3c(c(-c4ccco4)c2c1N)CCCC3
→ 1.52	0.48
- CCc1c(C)nc2c(-c3ccccc3OC)c(C)[nH]n2c1=O
→ 0.06	-0.26
- NC1=C([N+](=O)[O-])C(c2ccccc2)C2=C(CCCC2=O)O1 (stereo not given)
→ 1.24	0.06
- COc1ccc(Cl)cc1C(=O)NCCN(C)C
→ 0.4	-1.14
- COCCNC(=O)c1cc2c(=O)n(C)c3ccccc3c2n1C
→ 1.96	0.79
- Cc1ccc(C(=O)N/N=C/c2cccc3ccccc23)cn1
→ 2.09	1.08
- NS(=O)(=O)c1ccc(CCNc2nc(CN3CCOCC3)nc3sc4c(c23)CCC4)cc1
→ 0.51	-0.56

Additional entries follow:
Values in the order: KCNQ2 enhance	KCNQ2 enhance baseline
- Cc1cc(N(C)Cc2ccccc2)nc2cc(O)ccc12
→ 0.53	0.62
- Brc1cc2c(cc1CSc1ncccn1)OCO2
→ 0.06	1.82
- CC(C)C[C@@H](CC#N)N1CCN(CCc2ccccc2)CCC1=O
→ 0.22	0.72
- CC1CCC(C(C)C)C(OCC(O)CNC(C)c2ccccc2)C1 (stereo not given)
→ 0.01	-1.7
- CCN1C(=O)c2ccc(C(=O)Nc3nccs3)cc2C1=O
→ 0.12	-0.17
- O=C(CN(C(=O)CNC(=O)c1ccco1)c1ccc2c(c1)OCO2)NC1CCCCC1
→ 0.01	1.95
- COc1ccc(C(=O)NCc2cccnc2)cc1Br
→ 0.06	-2.32
- CCC(O)c1cc2c(cc1NC(=O)c1ccc(C)cc1)OCCO2 (stereo not given)
→ 0.19	0.06
- CCOc1ccccc1N1CCN(CC(=O)Nc2cc(C)on2)CC1
→ 0.03	0
- CCc1cccc(CC)c1NC(=S)N1CCn2cccc2C1c1ccncc1 (stereo not given)
→ 0.04	-1.48

The listing continues.
Values in the order: KCNQ2 enhance	KCNQ2 enhance baseline
- COc1ccccc1CNC(=O)Cn1nnc(-c2ccncc2)n1
→ 2.72	1.21
- CN1CCN(C(=O)Nc2ccccc2)CC1
→ 1.02	-0.23
- Cc1ccccc1OCCC(=O)NCCc1ccc(S(N)(=O)=O)cc1
→ 0.52	-0.09
- CO/N=C/c1c(-c2ccccc2)nn(C)c1Cl
→ 1.48	0.68
- O=C(Nc1cccc(-n2cnnn2)c1)c1ccc(OC(F)(F)F)cc1
→ 2.43	-1.09
- OCCc1ccccc1
→ 0.02	1.54
- CC(=O)NCCNc1nc2c(-c3cccc(C(F)(F)F)c3)nnn2c2ccccc12
→ 0.04	-0.06
- CCc1cc(=O)oc2cc(C)cc(OC(C)C(=O)NCc3cccnc3)c12 (stereo not given)
→ 1.58	1.73
- CC(C)c1nnc(NC(=O)CCC(=O)N2CCN(Cc3ccc(F)cc3)CC2)s1
→ 0.74	1.75
- CC1=C(C(=O)OC2CCCCC2)C(c2ccccc2F)NC(=O)N1 (stereo not given)
→ 0.56	0.45

The results go on.
Values in the order: KCNQ2 enhance	KCNQ2 enhance baseline
- CCOC(=O)c1cnc2ccc(Br)cc2c1NCCCN1CCOCC1
→ 0.4	-0.13
- CCOCC(=O)Nc1ccc(OCc2ccccc2)cc1
→ 0.13	-1.31
- CC(C)OC(=O)CNc1n[nH]c(=S)[nH]c1=O
→ 0.03	1.02
- COc1cc2cc(CN(Cc3cccnc3)C(=O)Nc3ccccc3F)c(=O)[nH]c2cc1OC
→ 0.89	-0.21
- COc1ccc(C(CC(=O)O)NC(=O)C(c2ccccc2)c2ccccc2)cc1 (stereo not given)
→ 1.8	0.26
- Cc1cc(NS(=O)(=O)c2ccc(NC(=S)NC(=O)c3ccc(C(C)(C)C)cc3)cc2)no1
→ 1.45	-1.97
- Cc1ccc(-c2csc(/C(C#N)=C/Nc3ccccc3SC(F)(F)F)n2)cc1
→ 0.6	0.66
- CC(C)(C)C(=O)/C(=C/c1ccncc1)n1cncn1
→ 2.69	-1.13
- O=C(Oc1coc(CSc2nnc(NC(=O)C3CC3)s2)cc1=O)c1c(F)cccc1F
→ 1.56	-1.14
- CCN(CC)c1ncnc2sc3c(c12)CCC3
→ 1.57	-0.16

Next records:
Values in the order: KCNQ2 enhance	KCNQ2 enhance baseline
- O=C(Nc1nccs1)C(NS(=O)(=O)c1ccc(Br)s1)c1ccccc1 (stereo not given)
→ 0.6	-1.42
- CN(C)c1oc(COc2ccc(F)cc2)nc1C#N
→ 0.59	4.78
- COCC(=O)N(C)C1(c2nnnn2CCOC(=O)Nc2ccc(Cl)cc2)CCCCC1
→ 2.41	-2.08
- COc1ccc(CC(=O)N/N=C(\C)c2ccc(Br)s2)cc1
→ 1.8	-1.11
- CCOC(=O)N1CCN(c2cc(=O)n(-c3ccc(Br)cc3)c(=O)[nH]2)CC1
→ 0.14	0.95
- COc1ccccc1CCNC(=O)CCSc1nc(-c2ccco2)cc(C(F)(F)F)n1
→ 0.25	1.17
- CCOC(=O)c1c(/N=C/c2ccc(O)cc2O)sc2c1CCC2
→ 0.68	-1.86
- O=C(NCc1ccc(/C=N\NC(=O)C(=O)Nc2ccccc2Br)o1)C(=O)Nc1ccccc1
→ 1.27	0.63
- O=C(N/N=C/c1ccc(O)cc1)c1nc(-c2ccccc2)n(-c2ccccc2)n1
→ 0.35	-0.53
- CC(=O)N1CCN(CC(=O)Nc2ccc(C)c(S(=O)(=O)N(C)C)c2)CC1
→ 0.31	-0.24

More entries.
Values in the order: KCNQ2 enhance	KCNQ2 enhance baseline
- O=C1CC(c2cccs2)c2cc3c(cc2N1)OCCO3 (stereo not given)
→ 0.35	-0.42
- Cc1ccc(NC(=O)NC2(C(=O)NCc3ccccc3)CCCCC2)cc1
→ 1.17	-0.41
- CC(C)CCn1c(SCC(=O)c2ccccc2)nc2c1c(=O)[nH]c(=O)n2C
→ 0.43	0.09
- CCOC(=O)CNC(=O)CNC(=O)c1nn(-c2ccc(OC)c(OC)c2)c(=O)c2ccccc12
→ 1.3	0.08
- NNC(=S)NCc1ccc2c(c1)OCO2
→ 0.18	-0.16
- Cc1ccc(S(=O)(=O)N(C)C)cc1NC(=O)COC(=O)C1CC1
→ 1.27	1.4
- COc1ccc(NC(=O)c2ccc(Cl)c(NC(=O)c3ccncc3)c2)cc1
→ 2.06	-0.45
- CC(=O)c1ccc(OCc2cc(C(=O)N3CCN4CCCC4C3)no2)cc1 (stereo not given)
→ 0.26	1.36
- COCC(C)n1c(C)cc(C(=O)CSc2nc(C)c(C)c(C)n2)c1C (stereo not given)
→ 0.99	-0.66
- CCCCn1c(=O)[nH]c(=O)c2c1nc(CN1C(=O)c3ccccc3S1(=O)=O)n2CCC
→ 0.46	-0.02

New compounds follow.
Values in the order: KCNQ2 enhance	KCNQ2 enhance baseline
- COc1ccc(C(OC(=O)c2ccco2)C(=O)NC2CCCCC2)cc1 (stereo not given)
→ 1.32	0.09
- CC(=O)c1cc2c(cc1N/C(=N/S(=O)(=O)c1ccc(Br)cc1)c1ccccc1)OCO2
→ 0.48	-2.13
- COc1ccc(Cn2ccnc2SCC(=O)Nc2cccc(NC(C)=O)c2)cc1
→ 0.28	0.27
- Cc1ccc(SCC2=NN(c3nc(C)cc(C)n3)C(=O)C2)cc1
→ 1.43	0.48
- COc1cccc(/C=N/Nc2nc3ccccc3[nH]2)c1OC
→ 2.56	-0.35
- CC1CC(C)CN(S(=O)(=O)c2ccc(C(=O)N3CCCC3)cc2)C1 (stereo not given)
→ 0.49	0
- O=C(O)CN1C(=O)CNC1=O
→ 1.65	-1.11
- O=C(CCN(NC(=O)c1ccccc1)C1=NS(=O)(=O)c2ccccc21)NC1CCCCC1
→ 0.33	-0.79
- COc1cc(C(=O)OC2CCOC2=O)cc(Cl)c1OC (stereo not given)
→ 0.85	-0.82
- Cc1ccc(-c2cn3c(=S)[nH]nc3s2)cc1
→ 0.01	0.15

From PubChem
